# Screening results: PubChem BioAssay, several laboratories
# Sa RN4220 lethal = S. aureus RN4220 growth inhibition. OD600, 16 h. inhibition, % (no concentration beside the values). 0.33% of 330,000 active. AID 1259311;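 active = z-score of -3 or lower and OD600 up to 0.18 on both plates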;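 also: plate controls were untreated cells for no effect and reference antibiotic for full effect; stock transfer was 100 nL into about 80 µL; one replicate is shown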
# Autofluor counter = compound fluorescence in toxin protease inhibitor counterscreen. compound autofluorescence counterscreen, microsphere flow cytometry; hits give high values. fluorescence intensity (test concentration not listed). 3.1% of 360,000 active. AID 624483;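 active = at least 3 SD above the mean of all compounds, about 16000 in these data; inconclusive = too few beads counted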;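 also: 100 nL of 1 mM stock went into each well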
# Mtb hypoxia inh = inhibitors of hypoxia-regulated fluorescent reporter in Mycobacterium tuberculosis | M. tuberculosis hypoxia-regulated fluorescent reporter, fluorescence | fluorescence inhibition, % (test concentration not listed) | 0.1% of 300,000 active;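 active = 35 to 45% if threefold the growth effect, above 45% if 1.5-fold the growth effect; inactive = the rest, general growth blockers included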;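 also: wells of about 50 µL received 100 nL stock; 0% = vehicle wells and 100% = reference inhibitor wells; whole bacteria with a GFP reporter of the hypoxia response; strong numbers were not always called active; many hits fall short of the cut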
# BJeLR viability = BJeLR cell viability loss; BJeLR (HRASV12) viability, CellTiter-Glo ATP luminescence, 48 h; reference of the scale not given here; inhibition, % (test concentration not listed); 0.17% of 300,000 active; AID 1554;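 active = replicate mean above 50%; inconclusive = above 50% but judged a plate artefact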;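 also: 50 nL library stock added to about 25 µL; numbers are from one replicate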
# Sa ugtP lethal = compounds lethal to S. aureus RN4220 ugtP deletion mutant | OD600 growth, 16 h; some inactives read as strong as hits | growth inhibition, % (test concentration not listed) | 0.54% of 330,000 active;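 active = z-score under -3 and OD600 up to 0.15 on both plates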;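 also: plate controls were untreated wells for no effect and antibiotic for full effect; wells of about 80 µL received 100 nL stock; the first replicate is given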
# PrP 5UTR inh = inhibition of PrP 5' UTR reporter expression; inhibition, % (concentration not given with the values); 0.35% of 340,000 active; AID 488862; cell-based PrP 5' UTR mRNA reporter, plate reader;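 active = every replicate at 50% or more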;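 also: 0 = median of the neutral control wells; tested in H4 reporter cells; numbers are from one replicate; inactives centre near -14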
# Mtb hypoxia inh growth = further read-out of Mtb hypoxia inh, marked with its call; growth inhibition, %; measured here: M. tuberculosis growth (absorbance);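 0% = vehicle and 100% = reference antibiotic; read after six days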
# Numbers without * were called inactive; ? = inconclusive; nt = not tested or not shown.
SMILES	Sa RN4220 lethal	Autofluor counter	Mtb hypoxia inh	Mtb hypoxia inh growth	BJeLR viability	Sa ugtP lethal	PrP 5UTR inh
CC1(C)CC(=O)c2cc(C(=O)N3CCCC(C)(C)C3)c(=O)n(-c3ccccc3)c2C1	-12	2478	14	12	-6	-8	-7
O=C(Cc1cccs1)Nc1ccc(NC(=O)c2ccco2)cc1	1.7	?	-2	-2	-8	7	-32
CCOC(=O)c1cnc2c(C)c(Cl)ccc2c1NCCCN1CCOCC1	1.0	2849	17	2	0	0	1
O=C1C(=O)c2ccccc2C(O)=C1CCCCl	nt	3805	nt	nt	-1	nt	-57
COc1ccccc1-c1nnc(NC(=O)c2ccc(S(=O)(=O)N3CCCC3)cc2)o1	1.5	6395	10	4	-6	10	-12
COc1ccc(NC(=O)CN2C(=O)c3cccc4cccc2c34)cc1OC	-1.7	4616	2	0	2	2	-11
Cn1c(SCC(=O)NNC(=O)Cc2ccccc2)nnc1-c1ccc(Cl)cc1	-1.1	?	-9	-9	-13	3	-16
O=C(/C=C/c1ccco1)c1cccc([N+](=O)[O-])c1	13	4000	nt	nt	nt	5	5
CCOc1ccc(CCNC(=O)CCc2c(C)nc3ncnn3c2C)cc1OCC	7.2	6238	-4	3	0	7	0
N/C(CC(=O)Nc1ccc(F)cc1)=N\O	nt	7583	nt	nt	-6	nt	-25
CCNCCOC(c1ccccc1)c1ccccc1	0.5	18751*	3	-11	-3	3	-23
C=CCn1c(O)c(C(CC)=Nc2ccc(N(CC)CC)cc2)c(=O)[nH]c1=O	4.0	21974*	-10	4	8	-6	-11
Nn1c(SCC(=O)NC2CCCc3ccccc32)nnc1C1CC1 (stereo unspecified)	2.6	nt	7	7	nt	3	nt
Fc1ccc(/C=N/NC(=S)NCCc2ccccc2)cc1F	nt	3610	nt	nt	0	nt	-13
CCC1=C2CC[C@H]3C(=O)N(CC)C(=O)[C@H]3[C@H]2[C@@]2(Cc3ccccc3)C(=NCCOC)OC(=O)N2C1=O	nt	3202	nt	nt	12	nt	-26
Cc1ccc(N2CC(C(=O)Nc3ccc4c(c3)OCO4)CC2=O)cc1 (stereo unspecified)	-0.9	8410	0	0	-3	-3	-43
Cc1oc(/C=N/NC(=O)CC2(C)OCCO2)cc1Br	nt	1993	nt	nt	-1	nt	-5
COCCNC(=O)CN1C(=O)COc2ccc(S(=O)(=O)N3CCCCCC3)cc21	2.1	5800	0	-6	1	0	-24
O=C(COc1ccc2c3c(c(=O)oc2c1)CCCC3)NCc1ccncc1	-0.1	2985	3	-7	11	6	-15
NNC(=O)c1sccc1OCc1ccc(Cl)cc1	4.8	4724	11	7	5	-3	-63
COc1ccc(-c2nnc(SCC(=O)Nc3cc(F)ccc3C)o2)cc1	3.3	5863	nt	nt	-3	4	-19
O=C(N/N=C/C1CC=CCC1)c1ccc(Cl)cc1O (stereo unspecified)	nt	3337	nt	nt	-3	nt	-9
CC[C@H](C)/C=C/C1=CC2=C(Cl)C(=O)[C@@]3(C)OC(=O)C(C(=O)[C@H](C)[C@@H](C)O)=C3C2=CO1	7.4	5286	nt	nt	1	12	-4
CCOc1cc(C2C3=C(CCCC3=O)N(CC(=O)O)C3=C2C(=O)CCC3)ccc1OC	4.8	3518	14	8	2	13	-53
CCN(CC)CC(=O)Nc1c(C)cc(C(C)(C)C)cc1C	4.6	3227	8	6	-9	3	-3
CC(C)=CC(=O)N1CCC(n2nccc2NC(=O)CCc2ccccc2)CC1	2.1	5909	5	7	-5	5	7
O=C(NC(=O)c1c(F)cccc1F)ON=C1CCCc2occc21	2.0	nt	-3	-5	nt	-1	nt
CCCc1ccc(OCC(O)CN2CCCC2)cc1 (stereo unspecified)	1.1	3630	5	13	3	20	-21
Cc1cccc(OCC(=O)N/N=C\C=C\c2ccc3c(c2)OCO3)c1C	nt	2948	nt	nt	-1	nt	-18
CCOC(=O)Cn1cnc([N+](=O)[O-])n1	1.3	3914	7	7	-2	12	-13
COc1cc2oc(=O)ccc2cc1-c1c(OC)ccc2ccc(=O)oc12	1.9	5524	nt	nt	nt	-5	2
COc1ccccc1-n1c(C)nnc1SCC(=O)Nc1cc(C)cc(C)c1	5.0	23628*	8	13	-2	0	-22
O=C(Cn1cnc2c(nnn2Cc2ccc(Cl)cc2)c1=O)NCC1CCCO1 (stereo unspecified)	-0.7	10277	5	-5	-1	5	-14
CCC(=O)C1CCCN(C(=O)CCc2nnc(-c3ccc(C(C)=O)s3)o2)C1 (stereo unspecified)	2.9	5418	-4	4	4	8	-47
COc1ccc(C=NNC(=O)c2nc(-c3ccccc3)n(-c3ccccc3)n2)cc1OC	7.1	nt	5	2	nt	1	nt
O=C(C1CCN(S(=O)(=O)c2ccccc2)CC1)N1CCCCCC1	1.6	4598	18	0	-5	7	-7
Cc1ccc(S(C)(=O)=NC(=O)NC(=O)c2c(Cl)cccc2Cl)cc1 (stereo unspecified)	4.0	5383	17	7	-3	11	-39
CCCCN(CC)C(=O)Cn1c(=O)sc2ccccc21	1.4	6841	2	-2	-1	-2	-28
COc1cccc(CNc2ncnc3cc(Cl)ccc23)c1	-1.2	3495	6	1	7	-8	-18
CCOC(=O)C1=C(N)Oc2ccc3ccccc3c2C1c1cccnc1 (stereo unspecified)	9.3	4501	16	6	2	-2	-32
CCC(C)Nc1c([N+](=O)[O-])cc(C)cc1[N+](=O)[O-] (stereo unspecified)	12	24719*	10	7	0	-8	-19
O=c1c2c3c(sc2nc2n1CCCC2)CCCC3	18	3157	-2	8	-11	3	-35
CN(C)c1ccc(/C=N/NC(=O)Cn2nnc3ccccc32)cc1	nt	2576	nt	nt	17	nt	-43
CCc1ccc(Oc2coc3cc(OC(=O)c4cc5ccccc5oc4=O)ccc3c2=O)cc1	3.6	2447	2	5	9	10	-22
CC(=O)NC(CCS(C)(=O)=O)C(=O)Nc1ccc(F)cc1Cl (stereo unspecified)	-0.3	2144	nt	nt	0	9	-10
CCOc1ccc(N2C(=O)NC(=O)/C(=C/c3cnc(SC)nc3)C2=O)cc1	4.5	3752	10	5	9	11	-2
CC1Cc2ccccc2N1C(=O)CSc1nnc(Cn2nnc3ccccc32)n1C (stereo unspecified)	11	6065	13	4	-3	-3	-15
Cc1ccc(C(C)C)c(OCc2nnc(SCC(=O)Nc3ncc(C)s3)n2C)c1	-1.9	5504	0	-7	9	14	-12
CC1=C(C(N)=O)C(c2ccccn2)n2nc(SCc3ccccc3)nc2N1 (stereo unspecified)	6.2	8833	-11	7	-12	2	-17
COc1ccc(N2CCN(C(=O)c3cc(=O)c4cc(C)ccc4o3)CC2)cc1	-0.4	4095	4	-7	2	3	-11
CN1CCN(C(=O)c2cc(C(C)(C)C)cc(C(C)(C)C)c2)CC1	3.9	3693	6	4	-5	5	-11
CCOC(=O)C1CCN(c2c(C(=O)c3ccccc3)cnc3ccc(CC)cc23)CC1	39	5742	1	3	10	94*	-27
Cc1cc(C)cc(Oc2nc3c(C)cccn3c(=O)c2/C=C(\C#N)C(=O)NC2CCS(=O)(=O)C2)c1 (stereo unspecified)	2.7	2119	1	6	nt	-24	-18
CCOc1ccccc1C(=O)Nc1nncs1	-2.1	10357	8	5	1	5	-42
N/C(=N\OC(=O)CN1C(=O)c2ccccc2C1=O)c1ccc(Cl)cc1	-0.4	3194	3	7	4	7	4
O=C(CSc1nc2ccccc2s1)Nn1cnnc1	8.9	3323	-1	8	9	-2	-4
Cc1[nH]n(-c2ccccc2)c(=O)c1C(c1cccc([N+](=O)[O-])c1O)c1c(C)[nH]n(-c2ccccc2)c1=O	8.4	6613	13	12	-7	-1	-9
O=C(COc1cccc2cccnc12)N/N=C/c1ccc(O)cc1	nt	4314	nt	nt	-6	nt	-12
CCn1c(SCC(=O)NC(C)(C)C)nnc1-c1ccoc1C	4.7	3732	10	13	-1	3	-20
CCc1ccc(CNC(=O)CCc2nnc(Cc3cccc(C(F)(F)F)c3)o2)nc1	5.1	3333	-4	-16	2	-2	-10

# Individual results from the entries so far.
# BJeLR viability, `Cc1oc(/C=N/NC(=O)CC2(C)OCCO2)cc1Br` : -1
# Mtb hypoxia inh, `CCOC(=O)c1cnc2c(C)c(Cl)ccc2c1NCCCN1CCOCC1` : 17

# The list goes on:
SMILES	Sa RN4220 lethal	Autofluor counter	Mtb hypoxia inh	Mtb hypoxia inh growth	BJeLR viability	Sa ugtP lethal	PrP 5UTR inh
Cc1cc(-n2c(C)cc(C(=O)COc3cc(F)ccc3[N+](=O)[O-])c2C)no1	6.4	5182	6	3	nt	4	-13
CCCN1CCc2c(sc(NC(=O)c3ccc(S(=O)(=O)N4CCCC4)cc3)c2C(N)=O)C1	0.1	7046	4	6	-2	-1	6
CC(C)c1ccc(C(=O)Nc2ccc(N3CCOCC3)cc2)cc1	8.0	1972	-4	0	6	15	-33
O=C(NNc1ccc([N+](=O)[O-])cc1)Nc1ccccc1	2.9	3197	9	10	5	4	-41
Cn1cc(S(=O)(=O)N2CCOCC2)cc1C(=O)NCCc1ccccc1	-14	4620	1	-2	1	6	1
CC(=O)NC(CC(=O)Nc1ccc(S(=O)(=O)N2CCCCC2)cc1)c1ccccc1 (stereo unspecified)	2.8	8687	13	4	1	-5	-13
Cc1cc(SCC(=O)NCCN2C(=O)CSC2=O)nc2c(C)cccc12	6.2	2075	4	1	0	4	-16
COc1ccc(CN(C)C(=O)c2ccc(NC(=O)CC3SC(N4CCCC4)=NC3=O)cc2)c(OC)c1 (stereo unspecified)	-1.9	6479	9	-2	3	7	-20
CC(=O)N1CCc2cc(S(=O)(=O)CCC(=O)NCc3ccco3)ccc21	1.2	2162	11	5	1	3	-19
COc1ccccc1Cc1nc2ccccc2n1S(=O)(=O)c1ccc(Cl)cc1	nt	9824	nt	nt	0	nt	12
O=C(O)CCCCCNCc1ccncc1	5.2	10234	1	6	0	12	-14
COc1ccc(S(=O)(=O)NCC(c2ccc(C)cc2)N2CCN(C)CC2)cc1OC (stereo unspecified)	0.6	6482	5	12	5	4	-10
COc1cccc(CN(C)C(=O)Cc2c[nH]c3ccccc23)c1OC	3.0	3558	6	14	-10	4	5
Cc1ccc2nc(NC(=O)c3ccc(Cl)s3)sc2c1	-1.0	5340	nt	nt	0	-8	-89
C=CCn1c(O)c(C=NC2CCN(Cc3ccccc3)CC2)c(=O)[nH]c1=O	3.0	4748	-1	10	13	6	14
COc1ccc(C(CNC(=O)c2ccc(S(=O)(=O)Nc3ccc(F)cc3)cc2)N(C)C)cc1 (stereo unspecified)	-0.1	3971	7	-5	-6	-6	-17
C=CCc1ccc(O)c(-c2ccc(O)c(CC=C)c2)c1	-6.5	5005	nt	nt	0	15	-22
COc1cc(/C=C2/C(=N)N3OC(C)=CC3=NC2=O)ccc1OCCOc1ccc(C)cc1	0.9	6408	-1	-2	10	4	-38
c1ccc(C2=Nc3cccc4cccc(c34)N2)cc1	-4.0	2132	5	4	-26	-14	-4
COc1ccc(C(=O)Nc2ccc(-n3nncc3C(C)(C)C)cc2)cc1	-1.8	4443	4	4	-13	6	-19
Fc1ccc(-c2ccc(NCCN3CCOCC3)nn2)cc1	5.9	3973	-3	-1	-1	15	-27
CCC1C(C#N)=C(SCC(N)=O)NC2=C1C(=O)CC(C)(C)C2 (stereo unspecified)	2.0	6080	-11	-6	-4	5	nt
COc1ccc(-c2nn(-c3ccccc3)cc2/C=C/C(=O)N2CCN(c3ccccn3)CC2)cc1	7.4	3324	-5	4	-1	-31	2
CCCNC(=O)Cn1c(=O)/c(=C/c2ccc(-c3cccc([N+](=O)[O-])c3)o2)s/c1=C\C(=O)C(C)(C)C	16	4302	5	-4	nt	2	-20
Cc1cccc(OCC(O)CN2CCN(S(=O)(=O)c3ccc(C)cc3C)CC2)c1 (stereo unspecified)	-1.7	3873	1	11	0	5	-11

# Rows were taken by chance; 4.1% or so of the library scored in one or more.
